VACV mCherry inh = inhibitors of vaccinia virus infection (mCherry reporter signal); Vaccinia virus mCherry reporter infection, fluorescence; about a quarter of the inactives have no number; Potency, µM (series often up to 36.5 µM), inactives show top-dose activity change, negative = inhibition, usual class: inhibitors; 310,000 tested, 0.63% active; AID 720579; active = well fitted inhibition curve with a large enough effect; inconclusive = small, poorly fitted or top-dose-only effect; inactive = no such curve, though single readings can be large or run the other way; tested in A549 cells; also: nearly all actives have a fitted effect of over 35% in size; inactives centre near -10
Vaccinia Venus = inhibitors of vaccinia virus (Venus reporter) | Potency, µM (highest dose often 36.5 µM), inactives show at the top dose activity change, negative = inhibition, actives largely listed as inhibitors | Vaccinia virus Venus reporter expression, fluorescence | AID 720580 | 330,000 tested, 0.46% active; active means well fitted inhibition curve with a large enough effect; inconclusive means small, poorly fitted or top-dose-only effect; inactive means no such curve, though single readings can be large or run the other way; tested in A549 cells; also: nearly all actives have a fitted effect of over 30% in size; inactives centre near -10
An asterisk follows results filed as active; i = inactive; ? = inconclusive; . = not tested or not shown; & = joins results of further samples; [ ] = another dose, or the depositor's remark. % is scaled to controls: 0 for no effect and ±100 for the full control effect; potency is read from the fitted curve at half-maximal effect.

SMILES	VACV mCherry inh	Vaccinia Venus
N#C/C(=C/c1cn(-c2ccccc2)nc1-c1cccc(OCc2ccccc2)c1)C(=O)NCCCn1ccnc1	-26%	?
COc1ccccc1C(=O)NNc1ncc(C)s1	-12%	-12%
COc1ccc(NC(=O)CCCc2nnc3n(CCC(C)C)c(=O)c4sccc4n23)c(OC)c1	-9%	-5%
Clc1ccc(NC2=NCCCCC2)cc1	.	-13%
CCOc1ccc(S(=O)(=O)Nc2ccc3c(c2)CCCN3S(=O)(=O)c2ccc(C)cc2)cc1	-14%	-11%
COc1cccc(C(=O)NCCS(=O)(=O)NC(C)CCc2ccccc2)c1 (centres undefined)	?	-26%
O=C(CSc1cn(CCNC(=O)c2ccccc2)c2ccccc12)NCc1ccco1	-6%	-9%
C=CC[C@H](CC(=O)N(CCO)Cc1ccccc1)C(=O)N[C@H](COC(=O)[C@H](CC=C)CC(=O)OC(C)(C)C)Cc1c[nH]c2ccccc12	-21%	-28%
COc1cc(C(=O)NC(=S)N2C[C@H]3C[C@H](C2)c2cccc(=O)n2C3)cc(OC)c1OC	i	-2%
NC(=O)NC(=O)C(Nc1ccc2c(c1)CCC2)c1ccccc1 (centres undefined)	?	-12%
Cc1ccnc(SCCn2c(N3CCCCC3)nc3c2c(=O)n(C)c(=O)n3C)n1	-10%	-7%
CCC/C(C#Cc1cc(OC)cc(OC)c1)=C1/c2ccccc2C(=O)N1c1ccccc1	-10%	-9%
CCOC(=O)c1cc(C)sc1/N=C/C1=C(O)CCCC1=O	i	-6%
CCOC(=O)NC(=O)c1cn(Nc2ccccc2C(F)(F)F)c(=O)[nH]c1=O	-5%	-4%
CC(=O)Oc1c(I)cc(I)cc1C(=O)Nc1ccc(Cl)cc1	10µM*	?
Brc1ccc(OCCN2CCOCC2)cc1	i	4%
COC(=O)c1ccc(NC(=O)c2ccc3nc(C)sc3c2)cc1	-2%	-2%
COc1ccccc1C(=O)N1CCN(Cc2nc(CC3CC3)no2)CC1	-1%	-9%
CCOc1ccc(N(C(=O)c2ccc(Cl)cc2)S(=O)(=O)c2ccc3c(c2)n(C)c(=O)n3C)cc1	-8%	-9%
Cc1ccc(C)c(OCCC(=O)OCC(=O)Nc2cc(S(=O)(=O)N3CCCCC3)ccc2C)c1	-14%	-8%
COc1cccc(NC(=O)CN(C)C(=O)c2ccc(NC3CC3)c([N+](=O)[O-])c2)c1	-10%	-15%
O=C(COC(=O)c1ccccc1C(=O)N1CCN(c2ccc(F)cc2)CC1)NCc1ccccc1	-13%	?
C=CCn1c(SCc2ccc(C#N)cc2)nnc1-c1cccc(OC)c1	.	-20%
CCCCC(NC(=O)c1ccc(Cl)cc1)C(=O)O (centres undefined)	-6%	-7%
CCCOc1ccc(CNC(=O)Cn2ncc3ccccc32)cc1	-22%	-17%
O=c1cc(NCCc2ccccc2)c2ccccc2o1	-20%	-18%
CCOC(=O)N1CCC(Nc2nc3ccccc3nc2NS(=O)(=O)c2ccc(Cl)cc2)CC1	i	-16%
O=C(NNC(=O)c1cc2cc3ccccc3nc2s1)c1ccc(F)cc1	0%	-9%
Cc1cc(C(F)(F)F)nn1CC(=O)N1CCCC1	.	-4%
Cc1ccc(C2c3c(oc4ccccc4c3=O)C(=O)N2c2nnc(C(C)C)s2)o1 (centres undefined)	?	?
CCCCN1CC[C@H]2C=CC[C@@H](C(=O)Nc3ccccc3)[C@H]2C1=O	-14%	-8%&-21%
O=C(N1CCOCC1)C12OC3CC(CC(C3)O1)O2	9%	2%
CCC(Sc1nc(C)cc(C)n1)C(=O)Nc1ccc(S(N)(=O)=O)cc1 (centres undefined)	i	-6%
C=CCNc1oc(-c2ccco2)nc1S(=O)(=O)c1ccccc1	-15%	-12%
Cc1noc(NS(=O)(=O)c2ccc(NC(=O)CS(=O)(=O)c3ccccc3)cc2)c1C	.	-12%
CCCCCCCCCC[n+]1cc(Br)cc(Br)c1	?	?
Cc1ccc(CC(=O)Nc2ccc(C(=O)N3CCCCC3)cc2)cc1	-20%	-9%
COc1ccc(CNC(=O)C2CCN(S(=O)(=O)c3ccc(F)cc3)CC2)cc1	-6%	0%
Cc1ccc(C(=O)NNC(=O)c2cccc3ccccc23)cc1	-11%	-1%
O=C(Nc1cccnc1)C1CCC(CNS(=O)(=O)c2cccc3nsnc23)CC1 (centres undefined)	8%	-12%
CCC(CC)NC(=O)CSc1ccc(S(=O)(=O)N2CCCCC2)cn1	-1%	-17%
COc1ccccc1Cn1c(=O)c2ccccc2n2c(SCC(=O)N3CCCCC3)nnc12	i	4%
COC(=O)c1ccc(NC(=O)c2ccccc2N(C)S(C)(=O)=O)cc1	.	-20%
CCOC(=O)C1CCN(C(=O)c2c(-c3c(Cl)cccc3Cl)noc2C)CC1	.	-5%
CCCCN(CC)CCNC(=O)CN(C)S(=O)(=O)c1ccc2c(c1)c(=O)n(C)c(=O)n2C	-2%	-6%
Cn1c(SCC(=O)N/N=C/c2cc([N+](=O)[O-])ccc2O)nnc1-c1ccccc1	-18%	-14%
CC(=O)c1cccc(NC(=O)[C@H]2O[C@@H]3OC(C)(C)O[C@@H]3[C@H]3OC(C)(C)O[C@H]32)c1	-15%	-18%
COc1cc(C(=O)Nc2nnc(-c3sccc3C)s2)cc(OC)c1OC	-14%	-7%
CN(C)S(=O)(=O)c1cc(NC(=O)CN2CCN(c3ccccc3F)CC2)ccc1Cl	-10%	-8%
CCCCn1c(N)c(N(CC(C)C)C(=O)C2CC(=O)N(c3ccccc3C(C)CC)C2)c(=O)[nH]c1=O (centres undefined)	-26%	-9%
CCOC(=O)C1CCCN(C(=O)c2c(C)nn(-c3ccc(F)cc3)c2-n2cccc2)C1 (centres undefined)	-7%	2%
CC(NCCC1(Cc2ccccc2Cl)CCOC(C)(C)C1)c1cccs1 (centres undefined)	-20%	-22%
O=C(c1ccccc1)n1nc(-c2ccco2)nc1NCc1cccs1	i	-16%
CCN(CC(=O)O)S(=O)(=O)c1cc(Cl)ccc1Cl	-10%[1.46 µM]	-22%
Cc1ccccc1OCCn1c(=N)n(C(C)C)c2ccccc21	-15%[7.34 µM]	-12%[7.34 µM]
COC(=O)C1=C(c2ccc(C(C)=O)cc2)C[C@@H]2CC[C@H]1N2C(=O)NC(C)C	i	-3%
COc1ccc(NC(=O)Cc2noc3ccc(C)cc23)cc1Cl	-22%	-22%
CCn1c(CNC(=O)Cc2ccc(OC)cc2)nnc1SCC(=O)c1ccccc1	5%	3%
CCN(Cc1ccccc1)C(=O)COC(=O)c1n[nH]c2ccccc12	.	-15%
Cc1ccc(CNC(=O)C2CC3Cn4c(nc5cc(C)c(C)cc54)C3N2C)o1 (centres undefined)	i	-6%

Next part.
SMILES	VACV mCherry inh	Vaccinia Venus
CC(C)C[C@H]1CN=C(Nc2ccccc2)N1CC1CCCCCC1	-4%	-21%
COc1ccc(NC2CC(=O)NC2=O)cc1 (centres undefined)	-7%	-4%
O=C(CN1C(=O)COc2ccc(S(=O)(=O)N3CCCCC3)cc21)NCc1ccc(F)cc1	-2%	-11%&-9%
Clc1cccc(CN2CCc3c([nH]c4ccccc34)C2)c1	?	-28%
O=C(CSC1=NS(=O)(=O)c2cc(F)ccc2N1)Nc1ccccc1	-13%	-1%
Cc1ccc(N(C(C)C(=O)N2CCCC2)S(C)(=O)=O)cc1 (centres undefined)	i	-8%
O=C(COc1ncnc2c(Cl)cc(Cl)cc12)NC1CCCCCC1	?	-10%
CCCCc1nn2c(=O)cc(COC(=O)c3ccccc3C)nc2s1	0%	0%
O=C(O)c1cc(Cl)ccc1-c1ccc(/C=C/c2cc(C(F)(F)F)[nH]c(=O)n2)o1	i	2%
CN(C)/C=N/c1nc(Sc2ccc(C(F)(F)F)cc2[N+](=O)[O-])n[nH]1	i	-21%
COc1ccc(CN2CCC(CNS(=O)(=O)c3cccc(C(F)(F)F)c3)CC2)cc1	-19%	-8%
NC(=O)C1CCN(C(c2ccccc2Cl)c2nnnn2Cc2ccc3c(c2)OCO3)CC1 (centres undefined)	-16%	-16%
COC(=O)CSc1ccnc2cc(Cl)ccc12	i[7.34 µM]	-5%[7.34 µM]
COC1=C[C@@H]2C3=C([C@@H]2C1=O)[C@@H](NC(C)=O)CCc1cc(OC)c(OC)c(OC)c13	-17%	-10%
O=C(Nc1ccccc1N1CCCC1)c1ccc(Cl)cc1Cl	?	-7%
COc1ccc2c(c1)C(C1C(=O)CCCC1=O)c1ccccc1O2 (centres undefined)	.	-12%
COc1ccc(Cc2c(-c3ccc(C)cc3)nc3ccc(Cl)cn23)c(C)c1	-27%	?
CC(=O)Nc1ccc(-c2csc(NC(C)c3ccccc3)n2)cc1 (centres undefined)	-28%	0%
Cc1cccnc1NC(=O)Cn1nc([N+](=O)[O-])cc1C	i	4%
CCOc1ccc(NC(=O)CN(C)C(=O)Cc2c[nH]c3ccccc23)cc1OCC	-16%	-21%
CCOc1ccc(NC(=O)[C@@H](NC(=O)c2ccccc2Br)C(C)C)cc1	-19%	?
COC(=O)c1ccc2c(c1)N(CC(=O)Nc1ccc(C)cc1Cl)C(=O)c1ccccc1S2	-17%	-7%
Nc1nc(=S)c2n[nH]nc2[nH]1	-9%&26%	-9%&-9%
CC(C)NC(=O)N(C)C[C@H]1OCCCC[C@@H](C)Oc2ccc(NC(=O)C3CCCCC3)cc2C(=O)N([C@H](C)CO)C[C@@H]1C	i	-19%
CC(Oc1ccc2c(-c3ccccc3)cc(=O)oc2c1)C(=O)NCCCN1CCOCC1 (centres undefined)	-15%	-13%
CC(=C/c1ccccc1)/C=N/NC(=O)c1cnccn1	-17%	-2%
COc1ccccc1C1CCN(C(=O)c2ccco2)CC1	i	6%
O=C(Nc1nc2ccccc2[nH]1)c1ccc(Cl)cc1	-31%	-24%
CC(=O)C[C@H]1c2cc(C(F)(F)F)ccc2S(=O)(=O)N1c1ccc(N(C)C)cc1	-17%&-19%	-17%&-13%

Filtered by structure: the entries above containing a Cl atom.
SMILES	VACV mCherry inh	Vaccinia Venus
Clc1ccc(NC2=NCCCCC2)cc1	.	-13%
CC(=O)Oc1c(I)cc(I)cc1C(=O)Nc1ccc(Cl)cc1	10µM*	?
CCOc1ccc(N(C(=O)c2ccc(Cl)cc2)S(=O)(=O)c2ccc3c(c2)n(C)c(=O)n3C)cc1	-8%	-9%
CCCCC(NC(=O)c1ccc(Cl)cc1)C(=O)O (centres undefined)	-6%	-7%
CCOC(=O)N1CCC(Nc2nc3ccccc3nc2NS(=O)(=O)c2ccc(Cl)cc2)CC1	i	-16%
CCOC(=O)C1CCN(C(=O)c2c(-c3c(Cl)cccc3Cl)noc2C)CC1	.	-5%
CN(C)S(=O)(=O)c1cc(NC(=O)CN2CCN(c3ccccc3F)CC2)ccc1Cl	-10%	-8%
CC(NCCC1(Cc2ccccc2Cl)CCOC(C)(C)C1)c1cccs1 (centres undefined)	-20%	-22%
CCN(CC(=O)O)S(=O)(=O)c1cc(Cl)ccc1Cl	-10%[1.46 µM]	-22%
COc1ccc(NC(=O)Cc2noc3ccc(C)cc23)cc1Cl	-22%	-22%
Clc1cccc(CN2CCc3c([nH]c4ccccc34)C2)c1	?	-28%
O=C(COc1ncnc2c(Cl)cc(Cl)cc12)NC1CCCCCC1	?	-10%
O=C(O)c1cc(Cl)ccc1-c1ccc(/C=C/c2cc(C(F)(F)F)[nH]c(=O)n2)o1	i	2%
NC(=O)C1CCN(C(c2ccccc2Cl)c2nnnn2Cc2ccc3c(c2)OCO3)CC1 (centres undefined)	-16%	-16%
COC(=O)CSc1ccnc2cc(Cl)ccc12	i[7.34 µM]	-5%[7.34 µM]
O=C(Nc1ccccc1N1CCCC1)c1ccc(Cl)cc1Cl	?	-7%
COc1ccc(Cc2c(-c3ccc(C)cc3)nc3ccc(Cl)cn23)c(C)c1	-27%	?
COC(=O)c1ccc2c(c1)N(CC(=O)Nc1ccc(C)cc1Cl)C(=O)c1ccccc1S2	-17%	-7%
O=C(Nc1nc2ccccc2[nH]1)c1ccc(Cl)cc1	-31%	-24%
